miR-21 FLuc – qHTS Assay for Modulators of miRNAs and/orActivators of miR-21 | HeLa miR-21 FLuc reporter, luciferase, 48 h | Potency, µM (series often up to 38.3 µM), for the others: at the top dose reporter change, positive = more light | 340,000 tested, under 10 active; active = well fitted rising curve with a large enough effect; inconclusive = small, poorly fitted or top-dose-only effect; inactive = no such curve, though single readings can be large or run the other way;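 further: % of control where 0% means no effect; miR-21 action dims this reporter so a rising signal means less miR-21 action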
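Luminescence from a firefly luciferase reporter carrying a miR-21 binding site downstream, stably expressed under a CMV promoter in HeLa cells that make miR-21 endogenously, reports miRNA modulation after 48 h compound exposure up to approximately 40uM final.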
GLA inh pH 4.5 – qHTS Assay for Inhibitors of Human alpha-Galactosidase at pH 4.5; AID 1467, 2008; activity change, negative = inhibition, % at 105 µM; Alpha-galactosidase A (Homo sapiens), P06280; 230,000 tested, under 10 active; purified enzyme, 4-MU-alpha-Gal fluorescence, pH 4.5; inconclusive = small, poorly fitted or top-dose-only inhibition, or a rising curve; inactive = flat fitted curve, though single readings scatter; no compound was filed as active;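 further: 0% = full activity with enzyme and -100% = basal without enzyme; dose as in the result columns while the protocol names 77 µM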
Rango dissoc inh – qHTS Assay for Inhibitors of RanGTP induced Rango (Ran-regulated importin-beta cargo) - Importin beta complex dissociation | Snurportin-1 (Homo sapiens) + GTP-binding nuclear protein Ran (Homo sapiens) + Importin … | Biochemical FRET Rango-importin beta, RanGTP-induced dissociation | actives 0.071% (n = 340,000) | Potency, µM (titrated, usually from 46.1 µM), for inactives: at the highest dose activity change, negative = inhibition; active means falling FRET ratio curve, often poorly fitted, with flat reads before Ran was added; inconclusive means other falling curves, or compound fluorescence or quenching; inactive means flat or rising ratio curve;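 further: potency means the concentration at half of the fitted maximal effect; % of control where 0% means no effect; nearly all actives have a fitted effect of over 45% in size; -100% = wells without RanGTP and RCC1; the record marks most hits as doubtful in a second field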
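Two FRET readings bracket the reaction: one 5 min after compound meets Rango–importin beta, another 45 min after RanGTP-RCC1 (0.6 uM Ran, 0.2 uM RCC1, 2 mM GTP) is added. Only the second defines inhibition.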
Rango-impB inh – qHTS Assay for Inhibitors of Rango (Ran-regulated importin-beta cargo) - Importin beta complex formation; Importin subunit beta-1 (Homo sapiens), Q14974; Rango CFP/YFP FRET sensor + importin beta, 45 min; Potency, µM (doses to about 92.2 µM), without a hit: at the highest dose inhibition of complex formation; actives 0.031% (n = 340,000); AID 540263, 2011; active = rising FRET ratio curve, often small or poorly fitted; inconclusive = mostly compound fluorescence or quenching in the first reads; inactive = flat curves in all reads;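 further: potency means the concentration at half of the fitted maximal effect; 0% = DMSO wells and 100% = buffer wells lacking importin beta; nearly all actives have a fitted effect of over 15% in size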
Target sequence (Q14974 whole entry, looked up): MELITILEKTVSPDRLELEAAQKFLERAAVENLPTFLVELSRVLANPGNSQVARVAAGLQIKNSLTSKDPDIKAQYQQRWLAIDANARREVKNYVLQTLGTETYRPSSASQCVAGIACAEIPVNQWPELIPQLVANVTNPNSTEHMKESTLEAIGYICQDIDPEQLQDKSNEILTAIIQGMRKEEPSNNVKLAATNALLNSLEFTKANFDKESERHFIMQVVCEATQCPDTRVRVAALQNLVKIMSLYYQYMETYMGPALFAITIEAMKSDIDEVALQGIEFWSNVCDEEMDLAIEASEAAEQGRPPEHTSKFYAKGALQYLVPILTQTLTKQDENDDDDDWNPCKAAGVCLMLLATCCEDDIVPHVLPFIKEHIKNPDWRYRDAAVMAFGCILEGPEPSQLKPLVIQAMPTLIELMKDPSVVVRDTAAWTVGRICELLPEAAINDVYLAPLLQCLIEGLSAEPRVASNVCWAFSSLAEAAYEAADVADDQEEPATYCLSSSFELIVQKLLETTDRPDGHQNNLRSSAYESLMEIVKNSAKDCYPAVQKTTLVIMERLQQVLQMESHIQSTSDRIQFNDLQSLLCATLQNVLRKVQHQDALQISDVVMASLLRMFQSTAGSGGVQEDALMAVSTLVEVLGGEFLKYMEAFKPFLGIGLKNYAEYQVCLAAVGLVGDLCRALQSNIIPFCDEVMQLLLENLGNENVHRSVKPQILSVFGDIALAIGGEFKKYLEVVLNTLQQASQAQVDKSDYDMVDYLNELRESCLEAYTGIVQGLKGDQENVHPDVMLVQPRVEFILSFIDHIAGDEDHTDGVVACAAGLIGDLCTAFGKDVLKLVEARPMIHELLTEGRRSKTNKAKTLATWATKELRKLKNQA
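FRET biosensor (snurportin 1 IBB flanked by EYFP and cerulean), 50 nM, with compound 5 min, then 0.125 microM importin beta in PBS, 1 mM DTT, 0.02% Tween-20, 0.1% BSA. CFP/YFP ratio read after 45 min at room temperature; pre-read flags interference.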
Numbers without * were called inactive; ? = inconclusive; . = no result given; & = joins results of further samples; [ ] = another dose, or the depositor's remark. This is a subset; rates above refer to the full screens.

entry	Compound	miR-21 FLuc	GLA inh pH 4.5	Rango dissoc inh	Rango-impB inh
1	O=C(O)C1CN(c2ncccc2[N+](=O)[O-])C1	0.0%	2.4	-15.2%	-0.8%
2	COc1ccc(NS(=O)(=O)c2ccc(C(=O)NCC3(N4CCOCC4)CCCCC3)cc2)cc1	.	.	14.5%	-0.9%
3	O=C(N/C(=C/c1ccc(Cl)cc1)C(=O)N1CCCCC1)c1ccco1	0.1%	.	-3.0%	-1.0%
4	CCCc1nnc(NC(=O)c2ccc(N3C(=O)C4C5C=CC(C5)C4C3=O)cc2)s1 (stereo not given)	0.2%	4.6	-12.4%	-3.4%
5	CCOC1OC(=O)C(Cl)=C1Nc1ccc(C)cc1 (stereo not given)	-1.0%	5.6	-4.4%	-0.4%
6	CCN(CC)c1c([N+](=O)[O-])c(=O)n(CC)c2ccccc12	3.0%	-3.5	8.4%	0.5%
7	Oc1cccc(NC(=S)Nc2ccccc2)c1	-14.9%	0.6	11.1%	-0.6%
8	COc1cc2c(c(OC)c1OC)C(c1ccc(O)cc1)CC(=O)O2 (stereo not given)	.	-20.9	12.0%	0.1%
9	Cc1cccc2sc(NC(=O)CCNS(=O)(=O)c3cccc4nonc34)nc12	10.1%	4.9	7.0%	3.3%
10	CC(=O)c1ccccc1NC(=O)COC(=O)C1CCCN1S(=O)(=O)c1ccccc1F (stereo not given)	.	.	11.7%	-2.6%
11	COc1ccc(NC(=O)N2CCCC2C(=O)NCc2cccs2)cc1 (stereo not given)	6.7%	.	-3.8%	1.4%
12	Cc1c(C(=O)Nc2cccc(Cl)c2)cn2c(nc3ccccc32)c1C#N	-2.7%	2.8	?	?
13	CCc1ccc(NC(=O)N(CCCN2CCOCC2)Cc2cccs2)cc1	-11.5%	-0.8	?	?
14	Cn1c(SCc2cccc(Br)c2)nc2c1c(=O)[nH]c(=O)n2C	-4.8%	.	12.9%	-0.6%
15	COc1ccc(CN(CC(O)COCc2ccccc2)S(=O)(=O)c2ccccc2Br)cc1 (stereo not given)	.	.	-4.2%	-2.9%
16	O=C(Nc1ccon1)c1ccc(Br)s1	-17.4%	.	-7.9%	0.3%
17	Cc1ccc2c(c1)c1c3n2CCN(CCC(=O)O)C3CCC1 (stereo not given)	0.2%	.	1.6%	-2.0%
18	CN1CCN(NC(=O)c2ccc(F)cc2)CC1	-4.3%	1.2	-4.7%	1.0%
19	Cc1ccc(C(=O)NN2CCOCC2)cc1[N+](=O)[O-]	-1.4%	.	12.2%	6.7%
20	Oc1ccccc1C1=Nc2ncnn2C(c2ccc(F)cc2)C1 (stereo not given)	-9.1%	2.0	?	?

More structures:
entry	Compound	miR-21 FLuc	GLA inh pH 4.5	Rango dissoc inh	Rango-impB inh
21	O=c1c(-c2ccccc2)c(O)cc(-c2ccncc2)n1-c1ccc(Cl)cc1	-2.3%	-2.5	-4.2%	-1.3%
22	COCCN(Cc1cc2c(C)cc(C)cc2nc1Cl)C(=O)c1ccccc1F	1.4%	0.1	24.3%	-0.7%
23	O=C(OCCCN=C1NS(=O)(=O)c2ccccc21)c1ccccc1F	-1.2%	5.4	0.2%	-2.5%
24	Cc1cc2cccc(C)c2nc1SCC(=O)NCC1CCCO1 (stereo not given)	-15.3%	-0.3	1.4%	0.2%
25	CC1SC(c2cccc(Cl)c2)NC1=O (stereo not given)	-3.2%	6.1	5.4%	-3.5%
26	CN(CCc1ccccn1)C(=O)CCC1CCCN(C(=O)CN2CCCCCC2)C1 (stereo not given)	-0.1%	7.8	-6.3%	-0.5%
27	Cc1nnc(SCC(=O)c2ccc([N+](=O)[O-])cc2)s1	2.1%	-5.5	-13.9%	-0.9%
28	Cc1ccc(S(=O)(=O)NCC2CCC(C(=O)NCc3ccccn3)CC2)cc1 (stereo not given)	-3.2%	-3.6[21.1 µM]	-8.7%	-0.9%
29	CSc1ccc(CN(C)CC(=O)Nc2ccccc2C(=O)NC2CC2)cc1	.	.	10.2%	0.9%
30	CC(=O)N[C@@H](CC(=O)O)C(=O)O	.	-4.0	3.0%	1.6%
31	CC(C)Cc1nnc(NC(=O)CSc2nc(-c3ccccc3)cc(=O)[nH]2)s1	-0.9%	-3.7	5.0%	-1.8%
32	Fc1ccc(F)c(CNc2ncnc3cc(Cl)ccc23)c1	18.6%	.	6.6%	-0.8%
33	COc1ccc(/C=C2\CCCC3C2=NN(C(=O)c2scnc2C)C3c2ccc(OC)cc2)cc1 (stereo not given)	-5.9%	7.6	-10.3%	?
34	Cc1cccc2c1cnn2C(=O)Nc1ccc(Br)cc1F	-14.1%	.	-0.7%	-0.5%
35	COc1ccc(C(=O)NC2CCN(C(=S)Nc3cccc(C)c3)CC2)cc1	-8.2%	-2.1	-12.3%	-3.5%
36	CCCCCCCc1ccc(-c2ccc(O)cc2)nc1	-23.8%	14.3	0.2%	0.9%
37	O=C(NC1CCCc2ccccc21)C1CCC(CNS(=O)(=O)c2cccc3nsnc23)CC1 (stereo not given)	1.5%	0.7	19.6%	-0.9%
38	COC(=O)CCC(=O)c1oc2ccccc2c1NC(=O)CCCN1C(=O)c2ccccc2C1=O	2.9%	4.0	-9.2%	2.4%
39	COc1ccccc1CNC(=O)C(C)Oc1ccccc1 (stereo not given)	-2.7%	.	-11.9%	-3.6%
40	O=C(Nc1ccc(F)cc1)c1ccc2c(c1)S(=O)(=O)N=C1CCCCCN12	.	.	-1.7%	-1.3%

Continued.
entry	Compound	miR-21 FLuc	GLA inh pH 4.5	Rango dissoc inh	Rango-impB inh
41	CCCCOc1ccccc1NC(=O)CC1SC(=NCC)N(CC)C1=O (stereo not given)	6.7%	-24.0	-5.6%	-1.2%
42	Cc1ccc(-n2nc3cc(C)c(NC(=S)NC(=O)/C=C/c4ccco4)cc3n2)cc1	-88.1%	-2.6	-21.9%	-1.4%
43	Brc1ccccc1C1N=C(c2ccccc2)NO1 (stereo not given)	-58.3%	.	4.4%	0.6%
44	COc1cccc(C=Nc2ccccc2C(=O)Nc2nccs2)c1OC	-20.8%	1.4	?	?
45	O=C(Cn1nnc2c(cnn2-c2ccc(F)cc2)c1=O)OC1CCCCC1	-9.9%	-4.6	-2.3%	0.1%
46	Cc1cc(C)nc(SCC(=O)Nc2ccc3c(c2)OCO3)n1	0.9%	.	1.9%	0.3%
47	CCOC(=O)c1[nH]c2ccccc2c1NC(=O)CN1CCCCC1	-10.8%	3.6	13.1%	3.1%
48	Cc1ccc(NC(=O)c2ccc(NS(=O)(=O)c3cccc4cccnc34)cc2)cc1	-6.8%	.	-6.0%	-3.1%
49	CCN(CC)CCNC(=O)c1cn(CCOC)c(=O)c2c1c1ccccc1n2C	0.5%&-3.5%	.	-1.4%	-2.3%
50	COc1ccccc1Nc1cc(C(=O)NCc2cccnc2)c2ccccc2n1	-0.3%	-0.1	-6.9%	2.0%
51	Cc1c(NC(=O)c2cccnc2Cl)c(=O)n(-c2ccccc2)n1C	0.9%	.	-25.1%	-4.6%
52	CCOc1ccccc1C(=O)Nc1cccc(-c2nnc(-c3ccccc3)o2)c1	-4.6%	5.2	0.9%	-2.7%
53	C/C=C/c1ccc(OCCn2cncn2)c(OC)c1	-4.3%	-1.2	-12.1%	8.6%
54	Cc1cc(-c2csc(NC(=O)c3cccc(S(=O)(=O)N(C)C)c3)n2)c(C)n1-c1ccccc1	-15.4%	2.7	20.5%	-0.7%
55	COc1cc(C(=O)Nc2ccccc2N2CCCCC2)cc(OC)c1OC	17.3%	.	7.0%	-2.1%
56	CCc1cccc(CC)c1NC(=S)NCCc1c(C)[nH]c2ccccc12	13.2%	-8.5	8.5%	-2.8%
57	COC(=O)[C@]1(Cc2ccccc2)N[C@H](CN(C)C(=O)c2ccc(F)cc2)[C@@H]2C(=O)N(C)C(=O)[C@@H]21	.	.	1.0%	-0.3%
58	C#CCOCCOCCOCCNc1nc(N2CCN(C(=O)[C@H](CC(N)=O)n3cc([C@@H](N)C(C)C)nn3)CC2)nc(N2CCN(C(=O)[C@H](CC(N)=O)n3cc([C@@H](N)C(C)C)nn3)CC2)n1	.	.	-9.7%	?
59	CC(C)[C@@H](C(=O)NCC1CCC(C(=O)O)CC1)n1nnc2ccccc2c1=O (stereo not given in full)	-11.6%	2.3	13.8%	-0.6%
60	COc1ccc(-n2nc(C(=O)NCc3ccco3)c3c4ccccc4n(C)c3c2=O)cc1Cl	-6.1%	2.7	1.3%	-0.5%

More compounds:
entry	Compound	miR-21 FLuc	GLA inh pH 4.5	Rango dissoc inh	Rango-impB inh
61	Cc1nc2ccccc2c(=O)n1NC(=O)C1CC1	-0.1%	4.2	22.0%	-0.9%
62	COc1ccc(OC)c(NC(=O)c2nnn(Cc3ccc(Br)cc3F)c2N)c1	-3.2%	7.9	23.7%	2.1%
63	COc1ccc(Oc2nc(Oc3ccc(OC)cc3)nc(Oc3ccc(OC)cc3)n2)cc1	-3.3%	0.4	-5.1%	-0.2%
64	COc1ccc(CCC(=O)NC2CCCCC2)cc1	22.7%	.	-12.3%	3.0%
65	O=C(Nc1ccc(Cl)cc1)c1cccc(OC(=S)N2CCOCC2)c1	9.8%	.	-6.0%	-0.8%
66	COC(=O)N/N=C/c1ccc(OC(=O)c2ccco2)c(OC)c1	1.3%	2.7	33.5%	1.6%
67	CCCCOc1cccc(C(=O)N(Cc2ccccc2)C2CCS(=O)(=O)C2)c1 (stereo not given)	2.0%	.	-2.7%	-1.0%
68	CCCn1nnnc1COc1ccc(C(N)=O)cc1	0.1%	.	11.2%	-0.6%
69	O=C(Nc1cc(C(F)(F)F)ccc1F)C1CCCC1	0.8%	10.2	-0.4%	5.0%
70	C=CCn1c(=N)n(CC(O)c2ccco2)c2ccccc21 (stereo not given)	-1.0%	-0.8	6.8%	1.8%
71	Cn1ncc(Br)c1C(=O)Nc1ccc(Cl)cn1	-8.0%	-5.4	-7.9%	0.0%
72	O=C(COc1ccc(Br)cc1)N1CCN(S(=O)(=O)/C=C/c2ccccc2)CC1	10.3%	-7.8	10.7%	-1.3%
73	COc1cc(CNC(C)c2ccccc2)cc(Br)c1OCc1ccccc1 (stereo not given)	5.3%	.	-12.3%	-5.2%
74	CCOc1ccc(NC(=O)C(CC)NC(=O)c2ccccc2CO)cc1 (stereo not given)	-1.4%	2.0	2.5%	4.4%
75	CCn1c(SCC(=O)Nc2nc3ccc(C)cc3s2)nc2c(c1=O)SC(C)C2 (stereo not given)	-1.7%	-13.8	-9.5%	-0.1%
76	O=C(COC(=O)C1CCCC1)Nc1cccc(Cl)c1Cl	.	.	13.5%	0.8%
77	O=C(Cn1cnc2ccccc2c1=O)c1ccc(Br)cc1	-65.2%	-13.6	-5.5%	3.9%
78	CCOc1cc(N2CCOCC2)c(OCC)cc1NC(=O)CSc1cccc[n+]1[O-]	-2.8%	-6.3	10.5%	0.5%
79	CC(=O)c1c(C)n(C)c2ccc(OC(=O)c3ccco3)cc12	-4.6%	-5.4	-10.0%	-3.8%
80	O=S(=O)(NCC1CCCO1)c1cccc(C(F)(F)F)c1 (stereo not given)	-0.2%	-0.4	-4.9%	-0.4%
81	O=C(c1sc2cccc(Cl)c2c1Cl)N1CCN(CCc2ccccn2)CC1	-13.4%	.	-3.9%	7.0%
82	COc1cccc(/C=C2/C(=O)NN(c3ccc(F)cc3)C2=O)c1	-5.5%	.	0.7%	-1.6%
83	COCCNC(=S)N1CCN(Cc2ccc3c(c2)OCO3)CC1	-2.4%	.	0.3%	4.6%

Screening results (PubChem)
